# Source: PubChem
# KCNQ2 inh – KCNQ2 channel blockers in CHO-K1 cells – cell-based, FluxOR thallium flux, B-score, primary screen (AID 2156); 310,000 compounds, 1.1% hits; B-score at 10 µM; 20 min; active compounds read low; only compounds with negative scores are shown here; some inactives read as strong as hits;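 active means fluorescence ratio B-score at most minus 3 library SDs, with starting brightness B-score within 2 library SDs, cut at about -5.5 in these data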
# Target sequence (O88943 whole entry, looked up): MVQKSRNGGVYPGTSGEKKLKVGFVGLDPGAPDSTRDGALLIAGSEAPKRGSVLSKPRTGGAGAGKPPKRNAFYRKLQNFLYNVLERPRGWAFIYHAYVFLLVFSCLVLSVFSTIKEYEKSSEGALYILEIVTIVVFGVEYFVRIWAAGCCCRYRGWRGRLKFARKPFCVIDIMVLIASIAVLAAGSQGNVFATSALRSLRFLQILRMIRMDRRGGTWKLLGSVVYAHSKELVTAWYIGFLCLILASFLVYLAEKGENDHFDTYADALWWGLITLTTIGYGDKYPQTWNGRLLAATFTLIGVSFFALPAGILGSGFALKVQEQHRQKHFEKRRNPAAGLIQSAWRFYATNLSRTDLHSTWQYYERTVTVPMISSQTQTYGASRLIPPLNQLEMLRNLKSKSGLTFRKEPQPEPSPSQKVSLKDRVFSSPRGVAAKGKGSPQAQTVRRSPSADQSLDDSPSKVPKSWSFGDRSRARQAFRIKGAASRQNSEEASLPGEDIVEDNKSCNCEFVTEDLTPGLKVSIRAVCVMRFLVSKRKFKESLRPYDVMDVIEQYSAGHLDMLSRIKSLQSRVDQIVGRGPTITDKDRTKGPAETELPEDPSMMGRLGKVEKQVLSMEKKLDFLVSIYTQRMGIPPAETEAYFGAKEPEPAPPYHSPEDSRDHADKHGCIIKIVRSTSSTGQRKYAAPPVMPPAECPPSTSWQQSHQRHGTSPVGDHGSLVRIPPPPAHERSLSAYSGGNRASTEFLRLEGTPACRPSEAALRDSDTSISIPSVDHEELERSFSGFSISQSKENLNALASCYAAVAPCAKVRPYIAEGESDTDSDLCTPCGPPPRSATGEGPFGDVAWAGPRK
# KCNQ2 inh baseline – further read-out of KCNQ2 inh, marked with its call; B-score; measured here: initial fluorescence intensity artifact check;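 brightness before thallium and not channel activity; 0 = typical well and far values either way flag optical interference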
# * marks the source's active call; other numbers are inactive results; i = inactive. This is a subset, so the mix of outcomes need not match the whole.
structure	KCNQ2 inh	KCNQ2 inh baseline
CCCCCCCNC(=O)COc1ccc2c(c1)C(=O)CC(C)(C)O2	i	0.8
CCC(=O)c1cn(CC(=O)Nc2c(C)cccc2C)c2ccccc12	i	1
CCCCCN1CC(O)=C(c2nc3ccccc3[nH]2)C1=N	i	0.52
O=C1c2ccccc2C(=O)N1CCc1nc2ccccc2c(=O)n1-c1ccccn1	i	2.2
COc1ccc2c(c1)C(=O)N(Cc1ccccc1)C(=O)C2(C)C	i	0.28
CC(=O)Nc1ccc(C(=O)OCC(=O)/C(C#N)=C(\C)N)cc1	i	-0.17
Cn1nc(-c2ccccc2)c2cc(C(=O)O)sc21	i	0.36
COc1cc(/C=N/NC(=O)COc2ccc(Cl)cc2)ccc1OS(=O)(=O)c1ccc(C)cc1	i	1.1
CCCn1ncc([C@@H]2C[C@H]3CN(Cc4cccc(Cl)c4)C(=O)[C@]34CCCN24)c1C	i	-0.7
Cc1ccc(-n2c(SCC(=O)N/N=C/c3c(C)nn(-c4ccccc4)c3C)nc3ccccc3c2=O)cc1	i	-0.21
O=C(OCc1nc2ccccc2s1)c1ccc([N+](=O)[O-])o1	i	-0.4
COc1ccc(C2CC3(CC(C)(C)NC(=S)N3)Oc3cc(O)cc(C)c32)cc1 (configuration not stated)	i	0.33
CC1=CC(C)(C)N2C(=O)C3(N=C(N)NC(Nc4ccccc4)=N3)c3cc(C)cc1c32 (configuration not stated)	i	-0.39
COCCOC(=O)CSc1ncccc1-c1nc2cc(C)c(C)cc2[nH]1	i	1.9
O=C(O)c1ccc(N/N=C/c2cc(Br)cs2)cc1	i	-0.11
COCC(=O)N(Cc1cc2cc(OC)ccc2[nH]c1=O)c1ccccc1OC	i	-0.48
O=C(NCC1CCCN(C(=O)c2cc(Cl)ccc2F)C1)c1ccc(F)cc1 (configuration not stated)	i	0.02
Cc1ccc(S(=O)(=O)N2CCC(=O)N2)cc1	i	-0.7
NC(=O)c1sc2nc3c(c(-c4ccco4)c2c1N)CCC3	i	0.11
COc1ccccc1N1CCN(C(=S)Nc2ccc3nc(N4CCOCC4)cc(C)c3c2)CC1	i	1.6
C=CCn1c(=O)c(C(=O)Nc2ccccc2C(=O)OCC)c(O)c2ccccc21	i	-2.3
C=CCn1cccc(C(=O)Nc2ccc(C)cc2)c1=O	i	1.7
O=C(/C=C/Nc1ccc([N+](=O)[O-])cc1)c1ccc(Br)cc1	i	0.14
Cc1csc(SCC(=O)NC(C)c2ccccc2)n1 (configuration not stated)	i	3.1
CCO[C@@H]1OC(C(=O)N2CCN(Cc3ccccc3)CC2)=C[C@H](c2ccc(Br)cc2)[C@H]1CCCO	i	-0.51
c1ccc2c(c1)Nc1cc3ccccc3cc1S2	i	-0.14
O=C(N/N=C/c1ccc([N+](=O)[O-])cc1)c1cc(-c2ccc3c(c2)OCO3)n[nH]1	i	-0.5
C=CCNC(=S)Nc1sc2c(c1C#N)CCCC2	i	0.49
Cc1cccc(OCC(=O)Nc2ccc(N3CCN(S(C)(=O)=O)CC3)cc2)c1	i	1.6
CCc1ccc(OCC(=O)NC(NC(=S)Nc2ccccc2OC)C(Cl)(Cl)Cl)cc1 (configuration not stated)	i	2.5
COc1ccc(S(=O)(=O)N2CCCC2c2cccs2)cc1 (configuration not stated)	i	0.35
COC(=O)c1c(NC(NC(C)=O)C(Cl)(Cl)Cl)sc2c1CCCC2 (configuration not stated)	i	2.1
O=C(Cn1ccc2ccccc2c1=O)NCCC(=O)N1CCN(c2ccccc2)CC1	i	-1.9
Cn1cc(CCNC(=O)CC2C(=O)NCCN2Cc2cccc(Oc3ccccc3)c2)cn1 (configuration not stated)	i	0.87
CCCn1nnnc1NCc1ccc(Cl)cc1Cl	i	0.38
COc1ccc(C(=O)OCC(=O)NC(=O)NC2CCCC2)c(O)c1	i	0.44
O=C(Nc1ccccc1)c1ccc(OC(=O)c2ccccc2)cc1	i	0.01
CCCc1nc(SC2CCCC2)c2c(=O)n(C)c(=O)n(C)c2n1	i	0.13
O=C(CN1C(=O)S/C(=C/c2cc(Br)cs2)C1=O)N1CCOCC1	i	1.7
O=C(NCC(=O)N(Cc1cccs1)C(C(=O)NC1CCCCC1)c1ccco1)c1cccs1 (configuration not stated)	i	0.28
O=C(CSc1nnc2c(n1)[nH]c1ccc(F)cc12)OCc1ccccc1	i	0.7
COc1ccc(/C=N/NC(=O)c2[nH]c3ccc(C)cc3c2-c2ccccc2)c(C(=O)O)c1OC	i	1.8
CCCCc1nnc(SCc2ccc(OCC)cc2)n1N	i	0.16
O=C(Cn1cc2c(n1)CCCC2)N1CCc2ccccc21	i	-1.6
O=C1OCc2ccc(NC(=O)c3sccc3Cl)cc21	i	-0.62
O=C1/C(=C\c2cc(Cl)c(O)c(Cl)c2)SC(=S)N1Cc1ccccc1	i	24
CN(C)Cc1ccc(F)cc1Sc1ccc(Cl)cc1Cl	i	1.1
O=C(O)CN(c1ccccc1)S(=O)(=O)c1cc(C(F)(F)F)cc(C(F)(F)F)c1	i	0.67
CC(=O)c1ccc(Nc2ccc([N+](=O)[O-])c3nonc23)cc1	i	-0.97
Cn1c(=O)c2c(nc(Sc3nc4ccccc4n3CC(=O)N3CCCCC3)n2C)n(C)c1=O	i	0.58
CCCc1nnc(NC(=O)CCC(=O)Nc2ccc(Cl)cc2)s1	i	-1.4
O=C(NCCC1=CCCCC1)c1cc(S(=O)(=O)N2CCCCC2)ccc1Cl	i	1.9
COc1cccc(C(=O)Nc2ccc(S(=O)(=O)Nc3nccc(C)n3)cc2)c1	i	0.05
COc1cc(C(=O)Nc2nc(C)cc(C)n2)cc(OC)c1OC	i	0.73
CCOc1ccc(CCn2c(-c3ccco3)nc3ccccc3c2=O)cc1OCC	-6.9*	0.11*
Cc1ccc2oc(C(=O)N(Cc3nccn3C)C(C)C)c(C)c2c1	i	0.93
CCOC(=O)/C(=N\Nc1ccc(Br)cc1)N1CC(C)OC(C)C1 (configuration not stated)	i	1.5
COC(=O)c1cc2c(=O)c3ccccc3oc2nc1C	i	0.14
O=C(NCCCN1CCC(Cc2ccccc2)CC1)C1CCN(S(=O)(=O)N2CCC3(CC2)OCCO3)CC1	i	-2.2
COC(=O)c1ccn(C(=O)c2ccc(Cl)cc2)n1	i	-0.08

# More structures.
Compound	KCNQ2 inh	KCNQ2 inh baseline
Cc1c2cnn(CC(=O)N3CCN(c4ncccn4)CC3)c(=O)c2c(C)n1Cc1ccc(F)cc1	i	0.97
CN1CCN(C2=C(Cl)C(=O)C(c3cnc(N4CCCCC4)s3)=C(Cl)C2=O)CC1	-9*	-10*
CC(C)=CCC/C(C)=C/COc1ccc2ccc(=O)oc2c1	i	-2.3
O=C1/C(=C/c2ccco2)Cc2ccccc21	i	2.1
O=C(NCc1cn2ccccc2n1)C1CCC(=O)N(Cc2ccccc2F)C1 (configuration not stated)	i	-1.3
CC(C(=O)NC1CCCCCC1)N(c1ccccc1)S(C)(=O)=O (configuration not stated)	i	0.67
CC1(C)CC2(CC(c3ccccc3)Oc3cc(O)ccc32)NC(=S)N1 (configuration not stated)	i	0.69
CCOC(=O)C(=CNc1ccc(OC)cc1[N+](=O)[O-])C(=O)OCC	i	2.1
COc1ccc(C(=O)NNC(=O)CSc2nnc(C3CC3)n2C)cc1	i	-0.24
CC1(C)Cc2c(c(-c3ccccc3)nc(N3CCOCC3)c2C(N)=O)CO1	i	-0.69
O=C(NCCCn1ccnc1)c1ccc(N2CCCCCC2)c([N+](=O)[O-])c1	i	6
COc1ccc(CC(=O)OCC(=O)NC(=O)NC2CCCCC2)cc1	i	0.09
O=C(NCc1c(O)ccc2ccccc12)c1ccccc1	i	0.74
Cc1c(NC(=O)c2ccccc2NC(=O)COc2ccccc2)cccc1C(=O)O	i	-0.68
Cc1cccc(NN=C2c3ccccc3-c3ccccc32)c1	i	-0.72
CC(=O)c1c(C)oc2ccc(NS(=O)(=O)c3cccs3)cc12	i	2
Cc1c(NC(=O)Nc2ccc(F)cc2)c(=O)n(-c2ccccc2)n1C	i	1.2
O=[N+]([O-])/C(C(Cl)=C(Cl)Cl)=C1\Nc2ccccc2O1	i	0.18
CC(C)N1CCN(Cc2ccoc2)CC1CCO (configuration not stated)	i	0.01
COc1ccc(Br)c(OC)c1C(=O)NC(=O)Nc1c(F)cccc1F	i	-1.2
Cc1cccc(C(=O)NC(NCc2ccco2)C(Cl)(Cl)Cl)c1 (configuration not stated)	i	-1.8
CC(CCc1ccccc1)NC(=O)C1CCN(S(=O)(=O)N2CCOCC2)CC1 (configuration not stated)	i	0.49
CC(C)NC(=O)NC(=O)COC(=O)c1cc(S(=O)(=O)N2CCCCC2)ccc1N1CCOCC1	i	0.54
CCOc1ccc(N2CC(C(=O)Nc3cc(Cl)ccc3-n3cncn3)CC2=O)cc1 (configuration not stated)	i	-1.4
COc1c(N2CCNC(C)C2)c(F)cc2c(=O)c(C(=O)O)cn(C3CC3)c12 (configuration not stated)	i	-0.88
N#C/C(=C/c1ccc(O)cc1)C(=O)NCc1ccc(Cl)cc1	i	2.9
O=C(NCc1ccccc1)C1=C[C@H](C2CCCCC2)C[C@H](OCCCCO)O1	i	0.29
O=C(O)c1cccc(S(=O)(=O)Nc2cccc(S(=O)(=O)N3CCCCCC3)c2)c1	i	1
O=S(=O)(Cc1ccccc1Cl)N1CCN(Cc2ccc3c(c2)OCO3)CC1	i	1.6
C=CCNC(=S)N/N=C/c1ccc(N(CC)Cc2ccccc2)cc1	i	0.19
COc1ccc(C2C(C#N)=C(N)Oc3c2sc2nc(C)cc(C)c32)cc1 (configuration not stated)	i	-2.2
CCN1C(=O)/C(=C\N(C(C)=O)c2ccccc2)OC1=S	i	-0.48
O=C(COC(=O)c1ccc([N+](=O)[O-])o1)Nc1cccc2ccccc12	i	0.78
CN1CC(=O)Nc2ccccc2C1=O	i	0.5
CCOC(=O)c1ccc(NC(=O)c2ccco2)cc1	i	-1.3
Cc1ccc(NC(=S)NCCC(c2ccccc2)c2ccccc2)c(C)c1	i	-1.3

# Ordered by the number under KCNQ2 inh baseline (descending): some entries from above
Compound	KCNQ2 inh	KCNQ2 inh baseline
O=C(CSc1nnc2c(n1)[nH]c1ccc(F)cc12)OCc1ccccc1	i	0.7
Cn1c(=O)c2c(nc(Sc3nc4ccccc4n3CC(=O)N3CCCCC3)n2C)n(C)c1=O	i	0.58
CCN1C(=O)/C(=C\N(C(C)=O)c2ccccc2)OC1=S	i	-0.48

# The listing continues.
Compound	KCNQ2 inh	KCNQ2 inh baseline
CCC(=O)Nc1nnc(SCC(=O)Nc2ccc3c(c2)OCCO3)s1	i	-2
O=C(O)CC1(CC(=O)N2CCC(C(=O)O)CC2)CCCC1	i	-0.37
Cc1[nH]ccc(=O)c1OCc1ccccc1	i	-0.24
CCOC(=O)c1nc(S(C)(=O)=O)ncc1Cl	i	-0.37
CN1CCNC(=O)C1CC(=O)NCCc1ccccc1F (configuration not stated)	i	-1.2
COc1ccc(CNC(=O)COC(=O)c2cc(-c3ccc(Cl)s3)nc3ccccc23)cc1	i	-0.34
COC(=O)Cc1c(C)nc2nc[nH]n2c1=O	i	-1.6
CC(C)N(C(=O)c1ccc(-c2ccccc2F)cc1)C(C)C	i	1.3
CC1CN(CC(O)COC(c2ccc(Cl)cc2)c2ccc(Cl)cc2)CC(C)O1 (configuration not stated)	i	-1.6
COc1ccc(C(NC(C)=O)c2cc(Cl)c3cccnc3c2O)cc1 (configuration not stated)	i	-0.84
CCOc1ccc(C(=O)OCc2nnc(-c3cccs3)o2)cc1OC	i	-0.04
COc1cc(/C=C/C(=O)Nc2cc(S(=O)(=O)N3CCOCC3)ccc2N2CCCC2)cc(OC)c1OC	i	1.5

# Some of the entries so far, with values under each structure.
# Results follow in this order: KCNQ2 inh, KCNQ2 inh baseline
> O=C(/C=C/Nc1ccc([N+](=O)[O-])cc1)c1ccc(Br)cc1
  i, 0.14
> Cc1csc(SCC(=O)NC(C)c2ccccc2)n1 (configuration not stated)
  i, 3.1
> CCO[C@@H]1OC(C(=O)N2CCN(Cc3ccccc3)CC2)=C[C@H](c2ccc(Br)cc2)[C@H]1CCCO
  i, -0.51
> c1ccc2c(c1)Nc1cc3ccccc3cc1S2
  i, -0.14
> O=C(N/N=C/c1ccc([N+](=O)[O-])cc1)c1cc(-c2ccc3c(c2)OCO3)n[nH]1
  i, -0.5
> C=CCNC(=S)Nc1sc2c(c1C#N)CCCC2
  i, 0.49
> Cc1cccc(OCC(=O)Nc2ccc(N3CCN(S(C)(=O)=O)CC3)cc2)c1
  i, 1.6

# Remaining list, next part:
Compound	KCNQ2 inh	KCNQ2 inh baseline
CCOC(=O)c1nc(NCc2ccccc2C)c2ccccc2n1	i	0.97
COc1ccc(CC(=O)OC(C)C(=O)NCc2ccc3c(c2)OCO3)cc1OC (configuration not stated)	i	-1.7
Cc1cccnc1NC(=O)c1cc2ccccc2oc1=O	i	0.65
Cc1cccc(-c2nc3c(c(=O)c4ccccc4n3C)c(=O)n2-c2ccccc2)c1	i	1
COc1cccc(CNn2cnnc2)c1OCc1ccccc1F	i	-1
CCn1ncc(CNC(=O)CCCSc2nc(-c3ccco3)cc(C(F)(F)F)n2)c1C	i	0.01
NC(=O)C1CCN(C(=O)c2cc(S(=O)(=O)N3CCOCC3)ccc2Cl)CC1	i	0.78
O=C(C1=C[C@@H](C2CC2)C[C@@H](OCc2ccc(CO)cc2)O1)N1CCOCC1	i	0.47
O=C(O)CCCCCn1c(SCC(=O)c2ccc(O)c(O)c2)nc2ccsc2c1=O	i	-0.09
Cc1ccc(S(=O)(=O)Nc2ccccc2CNc2c(C)n(C)n(-c3ccccc3)c2=O)cc1	i	0.12
O=C(CN1C(=O)C2CC=CCC2C1=O)Nc1nc2ccccc2s1 (configuration not stated)	i	0.76
c1csc(-c2noc(CN3CCOCC3)n2)c1	i	-0.06
Cc1ccc(N(CC(=O)NCc2ccco2)S(=O)(=O)c2ccccc2)cc1	i	-0.99
CCCCN(CCCC)C(=O)c1sc2nc(N3CCOCC3)c3c(c2c1N)CCCC3	i	-1.9
